# OX1R antagonist: antagonists of human orexin 1 receptor | O43613 | CHO/OX1R cells, Fluo-8 calcium fluorescence, orexin A | inhibition, % at 5 µM | 330,000 compounds, 0.43% hits;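 active = inhibition above its plate's threshold, mean inhibition of all tested compounds on the plate plus 3 SD, cut at about 37% in these data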;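 also: 0% = orexin A challenge wells and 100% = SB-334867-A antagonist wells; not every result past the cut was called active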
# Target sequence (O43613 whole entry, looked up): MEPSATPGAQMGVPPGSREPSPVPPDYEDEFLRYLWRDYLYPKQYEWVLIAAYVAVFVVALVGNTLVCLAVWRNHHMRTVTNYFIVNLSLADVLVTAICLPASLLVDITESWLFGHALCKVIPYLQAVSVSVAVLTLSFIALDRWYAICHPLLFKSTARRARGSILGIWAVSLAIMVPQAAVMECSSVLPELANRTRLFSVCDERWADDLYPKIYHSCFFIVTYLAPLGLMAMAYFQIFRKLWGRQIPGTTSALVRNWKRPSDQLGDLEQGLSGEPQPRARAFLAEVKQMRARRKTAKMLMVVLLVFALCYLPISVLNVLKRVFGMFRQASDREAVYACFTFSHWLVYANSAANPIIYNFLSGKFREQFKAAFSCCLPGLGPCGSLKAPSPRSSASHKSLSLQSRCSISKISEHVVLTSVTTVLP
# The depositor's hits bear a star; & = joins results of further samples. These rows are one share of the data; most or all hits stand in other tables.
OX1R antagonist	compound
-27.2	CCn1nc(NC(=O)C(C)C)c2cc3cccc(C)c3nc21
-11.6	O=C(NCCNC(=O)c1cc(OCC(F)(F)F)ccc1OCC(F)(F)F)Nc1ccc(Cl)cc1
-29.5	O=C(CSc1nc2nc(-c3cccs3)cc(C(F)(F)F)c2c(=O)[nH]1)Nc1ccc(F)c(F)c1
-11.8	O=C(CNC1CCN(Cc2ccccc2)CC1)Nc1ccc(S(=O)(=O)N2CCCCC2)cc1
-11.8	CN(c1ccccc1C(=O)Nc1cccc(C(F)(F)F)c1)S(C)(=O)=O
-16.9	NC(=O)C1CCN(C(=O)CN2CCc3ccccc32)CC1
-18.9	O=C(N/N=C/c1cccnc1)c1cccc(S(=O)(=O)Nc2cccc(Cl)c2)c1
-10.3	O=C(OCCN1CCCCC1)c1cccc(Cl)c1
-29.6	Cc1ccccc1-c1ccc(C(=O)Nc2cccc(F)c2)o1
8.5	CSc1nc(-c2ccccc2)nn1C(=O)c1ccco1
-21.0	CCOC(=O)c1cnn(-c2ccccc2)c1-c1ccccc1
-4.8	Cc1ccccc1C(=O)NCC(=O)NNC(=O)CCN1CCN(c2ccccc2)CC1
-15.8	Cc1ccc(C(=O)O/N=C(\N)c2ccccc2)c(Cl)c1
-7.9	NS(=O)(=O)c1ccc(CCNC(=O)CSc2ccc(Cl)cc2Cl)cc1
-14.9	CC1CCN(C2(O)C(=O)Nc3ccc([N+](=O)[O-])cc32)CC1 (centres undefined)
-22.2	Cc1ccc(CN(C(=O)c2ccco2)C(C(=O)NC2CCCC2)c2ccc(N3CCOCC3)cc2)cc1 (centres undefined)
-1.2	COc1ccc2oc(C(=O)C3CC3)c(N)c2c1
2.0	O=C1CC(N2CCN(c3ccc(S(=O)(=O)N4CCCC4)cc3)CC2)C(=O)N1c1ccc(F)cc1 (centres undefined)
-12.0	COc1ccc(Cc2nnc(N)s2)cc1OC
-12.9	Cc1ccc(C(=O)NN(C)c2nc3ccccc3nc2C(F)(F)F)cc1
-4.3	CC1Cc2c([nH]c3ccccc23)C(=O)N1 (centres undefined)
4.5	O=C(NC(CO)Cc1ccccc1)c1ccccc1 (centres undefined)
-26.6	COCCOC(=O)CSc1ncccc1-c1nc2cc(C)c(C)cc2[nH]1
-21.4	CCOc1ccc(CN2C(=O)c3ccccc3C2=O)cc1C(=O)N1CCC(C(N)=O)CC1
-22.5	CCOc1ncccc1C(=O)OCCN1C(=O)c2ccccc2C1=O
-11.8	Cc1ccc(OCC(=O)N2CCC(N3CC(C)CC(C)C3)CC2)cc1 (centres undefined)
-28.1	O=C(NCCc1c[nH]c2ccccc12)/C(=C\c1cccnc1)NC(=O)c1ccccc1F
-32.5	CC(C)c1nc2sc3c(NCc4ccccc4)ncnc3c2c2c1COC(C)(C)C2
-10.9	CC(C)C(=O)N1CCN(c2ccc(NC(=O)c3cccs3)cc2)CC1
-28.3	Cc1cc([N+](=O)[O-])ccc1-c1ccc(/C=N/NC(=O)c2ccc(Br)o2)o1
-7.3	O=C(O)/C=C/C(=O)c1ccc(O)cc1
-20.7	CN(CCC1CCOCC1)C(=O)CC1C(=O)NCCN1Cc1ccccc1F (centres undefined)
-15.3	Cc1ccc(-n2nccc2-c2nn(-c3cccc(C(F)(F)F)c3)c(=O)n(C)c2=O)cc1
-8.8	O=[N+]([O-])c1ccc(-c2cn3nc(-c4ccccc4)c(-c4ccccc4)nc3n2)cc1
-4.2	O=C(Cn1nnc2ccccc21)N1CCCCC1
-27.4	COc1ccc(OC)c(-c2oc3ccccc3c(=O)c2O)c1
-18.6	O=C(NCc1ccccn1)c1cc(S(=O)(=O)N2CCN(c3ccccc3)CC2)ccc1Cl
-9.6	NS(=O)(=O)c1ccc(CCNC(=O)CCCn2c(SCC(=O)N3CCCC3)nc3ccsc3c2=O)cc1
-0.9	CC(=O)NS(=O)(=O)c1ccc(NC(=O)CCc2ccccc2)cc1
-13.2	O=C(CN1C(=O)C2CC=CCC2C1=O)NCc1ccc2c(c1)OCO2 (centres undefined)
-33.7	C/C(=N/NC(=O)NC12CC3CC(CC(C3)C1)C2)c1ccccc1
-25.8	CC1CC(C)CN(S(=O)(=O)c2ccc3c(c2)oc(=O)n3CC(=O)NCCCOC(C)C)C1 (centres undefined)
-3.3	CNC(=O)C1CCC(=O)N1Cc1ccccc1Cl (centres undefined)
-8.3	CC(=O)Nc1ccc2nc(NC(=O)CS(=O)(=O)c3ccccc3)sc2c1
-13.6	O=C(c1cccc(F)c1F)N1CCCC1
-11.3	COc1ccc(C2(c3ccc(OC)cc3)NC(=O)N(CC(=O)Nc3ccc(N4CCOCC4)cc3)C2=O)cc1
-15.6&-1.4	CC(/C=C\c1cccnc1)=C/C(=O)O
-8.4	COc1ccc(OCC(=O)Nc2ccc(S(=O)(=O)Nc3cc(C)nc(C)n3)cc2)cc1
-8.7	CC(=O)C(Cc1ccccc1)(Cc1ccccc1)C(C)=O
-11.1	O=S(=O)(Nc1nc2ccccc2nc1Nc1ccc2c(c1)OCO2)c1ccccc1
-13.5	O=S(=O)(NCC1CCCO1)c1ccc(Br)s1 (centres undefined)
-9.4	COc1ccc(CCNC(=O)CSc2ccsc2[N+](=O)[O-])c(OC)c1
-20.7	Cc1oc(-c2ccc(Cl)cc2)nc1CN1CCC(C(=O)N2CCN(Cc3ccccc3)CC2)CC1
-0.8	CN(C(=O)c1cccc(C#N)c1)c1nnc(C2CCOC2)s1 (centres undefined)
-24.2	COc1c(C)cc(Br)cc1C(=O)Nc1ccccc1C
-9.2	COc1ccc(NC(=O)C(Cc2cc(C)cc(C)c2)C(C)C(=O)O)cc1 (centres undefined)
-14.2	CCOC(=O)N1CCN(C(=O)c2cccc(OC)c2O)CC1
-41.5	CCC(C)[C@@H](C(=O)Nc1ccc2c(c1)OCO2)N1Cc2ccccc2C1=O (some centres undefined)
-3.5	CC(=O)Nc1ccc(S(=O)(=O)NNC(=S)NCC2CCCO2)cc1 (centres undefined)
7.3	O=C(COC(=O)C1(c2cccc(F)c2)CCCC1)NCc1ccc2c(c1)OCO2

# Part of the list above in order of formula weight, high to low:
OX1R antagonist	compound
-22.2	Cc1ccc(CN(C(=O)c2ccco2)C(C(=O)NC2CCCC2)c2ccc(N3CCOCC3)cc2)cc1 (centres undefined)
-32.5	CC(C)c1nc2sc3c(NCc4ccccc4)ncnc3c2c2c1COC(C)(C)C2
7.3	O=C(COC(=O)C1(c2cccc(F)c2)CCCC1)NCc1ccc2c(c1)OCO2
-8.3	CC(=O)Nc1ccc2nc(NC(=O)CS(=O)(=O)c3ccccc3)sc2c1
-13.5	O=S(=O)(NCC1CCCO1)c1ccc(Br)s1 (centres undefined)
-8.7	CC(=O)C(Cc1ccccc1)(Cc1ccccc1)C(C)=O

# Following part.
OX1R antagonist	compound
-5.8	CC(C)n1c(C(O)c2ccc3c(c2)OCO3)nc2ccccc21 (centres undefined)
-7.8	COc1cccc(CC(=O)N2CCN(S(=O)(=O)c3ccc(Br)cc3)CC2)c1
-6.3	CCS(=O)(=O)N1CCCC(C(=O)NCc2ccc3c(c2)OCO3)C1 (centres undefined)
12.0	COc1ccccc1Oc1ccc(S(=O)(=O)Nc2cccnc2)cc1
-14.3	O=C(O)CN=CC1=C(O)CC(c2ccccc2)CC1=O (centres undefined)
-99.2	COc1ccc(-n2c(Cc3cccn3C)nnc2SCC(=O)Nc2cccc(C)c2C)cc1
-5.0	Cn1cccc1C(=O)NNC(=O)c1ccccc1Br
-20.0	COC(=O)c1sc2ncccc2c1OCc1ccccc1Cl
-3.0	COc1ccc(Cl)cc1NC(=O)C1CCN(S(C)(=O)=O)CC1
-26.8	CC(=O)c1c(C)[nH]c(C(=O)OCC(=O)NCCc2ccc(Cl)cc2)c1C
-10.4	COc1ccc([N+](=O)[O-])cc1NC(=O)C1C2C=CC(C2)C1C(=O)O (centres undefined)
-19.6	CCn1c(SCC(=O)N2CCC(C(N)=O)(N3CCCCC3)CC2)nnc1-c1ccccc1
12.0	COc1ccc(C(c2c[nH]c3ccccc23)c2c[nH]c3ccccc23)cc1O
-21.2	COC(=O)C1=C(C)N(c2ccc(Cl)cc2)/C(=C/c2ccc(O)cc2)C1=O
-28.7	CCc1nc(SCC(=O)c2ccccc2)c2c(=O)n(C)c(=O)n(C)c2n1
2.9	CN1CCN(c2ccc(NC(=O)c3ccccc3)cc2)CC1
-6.2	OC1(c2ccccc2)c2ccccc2-c2ncccc21 (centres undefined)
-2.8	CCNC(=S)Nc1ccc(C)c(S(=O)(=O)Nc2ccccc2OC)c1
-14.2	O=C(NCCc1c[nH]c2ccccc12)C(=O)NCC(c1ccco1)N1CCN(c2ccccc2F)CC1 (centres undefined)
-8.7	O=C(Nc1ccccc1)c1nn(-c2cccc(C(F)(F)F)c2)ccc1=O
-10.5	CCCNC(=O)Cn1cnc2sc(C(=O)N3CCN(CCC)CC3)c(C)c2c1=O
-12.4	CC1=C(C(=O)OC(C)C)C(c2cccc([N+](=O)[O-])c2)n2c(cc(=O)[nH]c2=S)N1 (centres undefined)
-5.4	CCOC(=O)C1(CCCc2ccccc2)CCN(C(=O)C(C)n2cncn2)CC1 (centres undefined)
-27.2	CCCCn1c(SCc2cccnc2)nc2c1c(=O)n(C)c(=O)n2C
-11.9	Cn1ccnc1SCC(=O)Nc1ccc2c(c1)OCCO2
-8.3	CCOC(=O)c1cc(C(=O)OCC)c(=O)[nH]c1N1CCCCC1
-24.1	CCN1C(=O)[C@H]2[C@@H](c3ccc(-c4ccc(Cl)c(Cl)c4)cc3)N3CCCC[C@@]3(C(=O)OC)[C@H]2C1=O
-32.4	Cc1ccc(Nc2c(-c3ccc(C)o3)nc3ncccn23)cc1
-1.1	CC(=O)N1CCN(c2ccc(NC(=O)C(c3ccccc3)c3ccccc3)cc2)CC1
-27.0	COc1ccc(N(C(=O)c2snc(C(N)=O)c2N)C(C(=O)NC2CCCC2)c2cccs2)c(OC)c1 (centres undefined)
-4.3	COc1ccc(OC)c(N(CC(=O)NCc2ccccn2)S(C)(=O)=O)c1
5.4	COc1ccc(-c2noc(-c3cc(C)cc(C)c3)n2)cc1OC
-11.7	Nc1nc(NC(=O)c2cccc(S(=O)(=O)N3CCCCCC3)c2)nc(-c2ccccc2)n1
-26.0	CCN(c1ccccc1)S(=O)(=O)c1ccc(Cl)c(C(=O)OCC(=O)NC(=O)C(C)C)c1
-13.4	CC1CN(C(=O)C(C)Sc2nc3ccccc3s2)CC(C)O1 (centres undefined)
-7.4	COc1cc(C(=O)Nc2ccc(N3CCOCC3)cc2)ccc1OCc1c(C)noc1C
-22.1	COc1cccc(-c2nc(-c3ccccc3)[nH]c(=O)c2C#N)c1
-23.4	Cc1ccccc1-c1nc(SCc2cccnc2)c2c(=O)n(C)c(=O)n(C)c2n1
14.2	CCCc1nc2sc3c(=O)n(N)cnc3c2c2c1COC(C)(C)C2
-25.3	CC1CCCCN1CCCNC(=O)CN1C(=O)c2cccnc2Oc2ccc(Cl)cc21 (centres undefined)
-22.8	CCC(C(=O)N1CCN(Cc2ccc3c(c2)OCO3)CC1)n1c(=O)[nH]c2ccccc2c1=O (centres undefined)
-7.6	O=C(Nc1cccnc1)c1cc2nc(C3CC3)cc(C(F)(F)F)n2n1
-31.0	Cc1cccc(NC(=O)C2CCN(C(=O)NCc3ccccc3)CC2)c1C
-13.9	CCCCCOc1ccc(/C=c2\sc3nc(=O)c(-c4ccccc4)nn3c2=O)cc1OC
-8.7	COc1cccc(C(=O)NCCSCc2ccccc2Cl)c1
-19.8	CC(=O)Oc1cccc(N2C(=O)c3ccccc3C2=O)c1
-13.7	CCn1c2ccccc2c2nnc(SCC(=O)NCCOC)nc21
14.9	CC(=O)C1=C(O)C(=O)N(CC(=O)O)C1c1ccccc1Cl (centres undefined)
-24.3	COc1ccc([N+](=O)[O-])cc1NC(=O)C(C)N(C)Cc1cccc(OC)c1OC (centres undefined)
-17.0	COc1ccc(C2C(C#N)=C(N)Oc3n[nH]c(C)c32)cc1Cn1nc(C)c([N+](=O)[O-])c1C (centres undefined)
-27.9	CCc1nc(NCc2cccnc2)c2oc3ccccc3c2n1
-26.1	Cc1ccc(/C=C/c2onc(C)c2S(=O)(=O)N2CCC(C(=O)NC(C)(C)C)CC2)cc1
-13.6	N#Cc1cc2cc3c(cc2nc1SCC(=O)N1CCCC1)OCCO3
-12.8	COc1ccc(C(=O)NNC(=O)c2ccc(C)cc2)cc1S(=O)(=O)N1CCCC1
9.6	O=C(Cn1c(=S)[nH]c2ncccc2c1=O)NCCc1ccccc1
1.2	Cc1cc(O)cc(=O)n1C
-18.2	O=C(c1ccc(CS(=O)(=O)c2c(Cl)cccc2Cl)o1)N1CCCC1
-21.1	Cc1c(C(C)(C)C)s/c(=N/S(=O)(=O)c2ccccc2)n1C
-10.6	COc1ccc(C(=O)c2oc3nc(C)cc(C)c3c2N)cc1
-10.6	COc1cc(NC(=O)COC(=O)c2cnc(C)cn2)c(C)cc1[N+](=O)[O-]

# Structural class, those above containing a cyano group.
OX1R antagonist	compound
-0.8	CN(C(=O)c1cccc(C#N)c1)c1nnc(C2CCOC2)s1 (centres undefined)
-22.1	COc1cccc(-c2nc(-c3ccccc3)[nH]c(=O)c2C#N)c1
-17.0	COc1ccc(C2C(C#N)=C(N)Oc3n[nH]c(C)c32)cc1Cn1nc(C)c([N+](=O)[O-])c1C (centres undefined)
-13.6	N#Cc1cc2cc3c(cc2nc1SCC(=O)N1CCCC1)OCCO3

# Returning to the listing; the three compounds before the break are reprinted first.
OX1R antagonist	compound
-21.1	Cc1c(C(C)(C)C)s/c(=N/S(=O)(=O)c2ccccc2)n1C
-10.6	COc1ccc(C(=O)c2oc3nc(C)cc(C)c3c2N)cc1
-10.6	COc1cc(NC(=O)COC(=O)c2cnc(C)cn2)c(C)cc1[N+](=O)[O-]
-12.3	COc1ccc(C(=O)OCC(=O)Nc2ccc(Cl)cn2)cc1
-16.0	CC(C)Oc1cccc(NC(=O)c2cnccc2C(F)(F)F)c1
-11.7	COc1cc(OC)c(C2N(c3ccccn3)C(=O)C3CCCN32)cc1OC (centres undefined)
-26.6	Cc1cccc(S(=O)(=O)N2CN(CC3CCCO3)c3nc4ccccc4nc32)c1 (centres undefined)

# Assay outcomes as filed in PubChem BioAssay.
